Bioassay records: PubChem, Broad Institute
NOMO-1 viab: NOMO-1 AML cell viability reduction, primary screen, STK33 inhibitor project, CellTiter-Glo luminescence; hit rate 7.5% among 37,000; inhibition, % (no concentration beside the values); AID 2330, 2010; NOMO-1 AML viability, 72 h;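 active = most replicates above 80%; inconclusive = exactly half above 80%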;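 note: wells of about 30 µL received 25 nL stock; 0% = median of vehicle wells and 100% = reference inhibitor level; the first replicate is given; inactives centre near 10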
Active calls of the source: *; u = inconclusive. The list is partial; the hit share may differ from the screen's.

SMILES	NOMO-1 viab
C[C@H](CO)N1C[C@H](C)[C@H](CN(C)Cc2ccc(C(=O)Nc3ccccc3N)cc2)Oc2c(NS(=O)(=O)c3cn(C)cn3)cccc2C1=O	2.6
C[C@H](CO)N1C[C@H](C)[C@H](CN(C)C(=O)NC2CCCCC2)Oc2ccc(NC(=O)Cn3cnnn3)cc2C1=O	-2.8
CC(C)NC(=O)N(C)C[C@H]1Oc2ccc(NS(=O)(=O)c3ccccc3)cc2CC(=O)N([C@@H](C)CO)C[C@H]1C	-3.9
COc1ccc(OCC(=O)Nc2ccccc2-c2nc3ccccc3s2)cc1	-4.4
C[C@H]1CN([C@@H](C)CO)C(=O)c2cccc(NC(=O)Nc3ccccc3)c2O[C@H]1CN(C)S(=O)(=O)c1ccccc1	15.2
COc1ccc(S(=O)(=O)Nc2ccc3c(c2)C(=O)N([C@@H](C)CO)C[C@@H](C)[C@H](CN(C)Cc2ccncc2)O3)cc1	3.6
C[C@@H]1CN([C@H](C)CO)C(=O)Cc2cc(NC(=O)Nc3ccc(F)cc3)ccc2O[C@H]1CN(C)C(=O)NC1CCCCC1	10.2
COc1ccc(S(=O)(=O)N(C)C[C@H]2Oc3ccc(NC(=O)CCC(F)(F)F)cc3C(=O)N([C@H](C)CO)C[C@H]2C)cc1	13.2
O=C(CSc1nc2ccc([N+](=O)[O-])cc2[nH]1)Nc1ccc2c(c1)OCCO2	24.6
COc1ccc(S(=O)(=O)Nc2ccc3c(c2)C(=O)N([C@H](C)CO)C[C@H](C)[C@@H](CN(C)Cc2ccc(Cl)c(Cl)c2)OCCCC[C@@H](C)O3)cc1	125.0*
C=C1C2CC[C@@]3(C)[C@H](c4ccoc4)OC(=O)C[C@]13O[C@H]1CC(=O)C(C)(C)C(CC(=O)OC)[C@@]21C (stereo partly specified)	14.4
CC1=NN(C(=O)c2ccc(Cl)cc2)C(C)(C)C1	-11.1
C[C@H](CO)N1C[C@H](C)[C@@H](CN(C)C(=O)Nc2ccc(C(F)(F)F)cc2)Oc2ccc(N(C)C)cc2C1=O	16.0
Cc1cc(C)c(OCCCCNCCO)c(C)c1	-12.6
C[C@H]1CN([C@@H](C)CO)C(=O)c2cc(NS(=O)(=O)c3ccc(F)cc3)ccc2O[C@H]1CN(C)S(=O)(=O)c1ccccc1	22.8
C[C@@H]1CN([C@@H](C)CO)C(=O)c2cc(NC(=O)Nc3ccc4c(c3)OCO4)ccc2O[C@H]1CN(C)C	11.4
Cc1ccc(S(=O)(=O)N(C)C[C@@H]2Oc3c(NC(=O)NC(C)C)cccc3C(=O)N([C@@H](C)CO)C[C@@H]2C)cc1	-22.1
Cc1noc(C)c1NC(=O)N(C)C[C@H]1Oc2ccc(NC(=O)c3ccncc3)cc2CC(=O)N([C@@H](C)CO)C[C@H]1C	6.8
Cc1cccc(C)c1NC(=O)CN(c1cccc(F)c1)S(C)(=O)=O	27.8
C[C@@H]1CN([C@H](C)CO)C(=O)Cc2cc(NC(=O)Nc3ccc(F)cc3)ccc2O[C@@H]1CN(C)Cc1ccc(C(F)(F)F)cc1	u
CNC[C@@H]1Oc2ccc(NS(C)(=O)=O)cc2C(=O)N([C@@H](C)CO)C[C@@H]1C	19.9
CC(C)NC(=O)N(C)C[C@@H]1Oc2ccc(NC(=O)Cc3ccccc3)cc2CC(=O)N([C@H](C)CO)C[C@@H]1C	19.7
C[C@H]1CN([C@@H](C)CO)C(=O)c2cc(NC(=O)CCN3CCOCC3)ccc2O[C@H]1CN(C)C(=O)Nc1cccc2ccccc12	29.3
CN(C1CCCCC1)S(=O)(=O)c1ccc(N)cc1	35.0
C[C@@H]1CCCCO[C@@H](CN(C)S(=O)(=O)c2cccs2)[C@@H](C)CN([C@H](C)CO)C(=O)c2cc(NC(=O)c3ccncc3)ccc2O1	30.4
C[C@H](CO)N1C[C@H](C)[C@H](CN(C)Cc2ccc(-c3ccccc3)cc2)Oc2ccc(NS(=O)(=O)c3ccc(F)cc3)cc2C1=O	41.4
CN(CC(=O)Nc1ncn[nH]1)S(=O)(=O)c1ccc2ccccc2c1	18.6
C[C@@H]1CN([C@H](C)CO)C(=O)c2cccc(NC(=O)C3CCCCC3)c2O[C@@H]1CN(C)Cc1ccc2c(c1)OCO2	11.0
COC(=O)c1c(C)n(CCNc2ccc([N+](=O)[O-])cc2)c2ccc(O)cc12	32.6
COc1cc(NS(=O)(=O)c2ccc(NC(=S)NC(=O)c3ccco3)cc2)ncn1	-2.4
c1ccc(-c2ccc3c4ccccc4cc-3o2)cc1	106.2*
Cc1ccc(OCC(=O)Nc2ccc3c(c2)oc2ccccc23)cc1[N+](=O)[O-]	9.8
CC(=O)Nc1cccc(-c2nnc(SCC(=O)Nc3cccc(Cl)c3)n2C)c1	-8.3
CC(C)NC(=O)N(C)C[C@@H]1Oc2ccc(NC(=O)c3ccncc3)cc2C(=O)N([C@@H](C)CO)C[C@@H]1C	-10.8
COc1ccc(S(=O)(=O)N(C)C[C@H]2Oc3ccc(NS(=O)(=O)c4ccccc4)cc3CC(=O)N([C@@H](C)CO)C[C@H]2C)cc1	20.6
C[C@@H]1CN([C@H](C)CO)C(=O)c2cc(NC(=O)Cc3ccccc3)ccc2O[C@@H]1CN(C)S(=O)(=O)c1cn(C)cn1	6.3
C[C@H](CO)N1C[C@H](C)[C@H](CN(C)Cc2ccc(Cl)c(Cl)c2)Oc2ccc(NC(=O)c3ccncc3)cc2CC1=O	8.3
Cc1noc(C)c1NC(=O)N(C)C[C@H]1Oc2ccc(NC(=O)Nc3cccc4ccccc34)cc2C(=O)N([C@H](C)CO)C[C@@H]1C	8.3
C[C@@H]1CN([C@H](C)CO)C(=O)c2cc(NC(=O)C3CCCCC3)ccc2O[C@@H]1CN(C)C(=O)Nc1ccc(C(F)(F)F)cc1	17.4
Cc1ccc(S(=O)(=O)N(C)C[C@H]2Oc3ccc(NS(C)(=O)=O)cc3C(=O)N([C@@H](C)CO)C[C@@H]2C)cc1	6.9
COc1c(Cl)ccc(Cl)c1C(=O)Nc1ccc(S(=O)(=O)Nc2cc(C)nc(C)n2)cc1	-9.1
Cc1ccc(OCC(=O)Nc2cc3nn(-c4ccc(C)cc4)nc3cc2C)cc1	-6.7
C[C@H]1CN([C@@H](C)CO)C(=O)c2cc(NC(=O)Cn3cnnn3)ccc2O[C@H]1CN(C)Cc1ccc(-c2ccccc2)cc1	10.8
C[C@@H]1CN([C@@H](C)CO)C(=O)c2cc(NC(=O)Nc3ccc(F)cc3)ccc2O[C@H]1CN(C)Cc1ccc(Oc2ccccc2)cc1	61.5
C[C@H](CO)N1C[C@H](C)[C@@H](CN(C)C(=O)Nc2cccc3ccccc23)Oc2ccc(NC(=O)C3CCCCC3)cc2C1=O	13.7
C[C@@H]1CN([C@H](C)CO)C(=O)c2cc(NC(=O)Nc3ccc(C(F)(F)F)cc3)ccc2O[C@@H]1CN(C)Cc1ccc(C(F)(F)F)cc1	114.6*
Cn1c(SCC(=O)Nc2ccc(F)c(F)c2)nnc1-c1ccccn1	13.9
COc1ccc(NC(=O)Nc2cccc3c2O[C@H](CN(C)S(=O)(=O)c2ccc(OC)cc2)[C@H](C)CN([C@H](C)CO)C3=O)cc1	-6.3

Five records drawn at random from the list so far, as already listed:
SMILES	NOMO-1 viab
C[C@@H]1CN([C@H](C)CO)C(=O)c2cc(NC(=O)Nc3ccc(C(F)(F)F)cc3)ccc2O[C@@H]1CN(C)Cc1ccc(C(F)(F)F)cc1	114.6*
COc1c(Cl)ccc(Cl)c1C(=O)Nc1ccc(S(=O)(=O)Nc2cc(C)nc(C)n2)cc1	-9.1
Cc1noc(C)c1NC(=O)N(C)C[C@H]1Oc2ccc(NC(=O)Nc3cccc4ccccc34)cc2C(=O)N([C@H](C)CO)C[C@@H]1C	8.3
C[C@H](CO)N1C[C@H](C)[C@@H](CN(C)C(=O)Nc2cccc3ccccc23)Oc2ccc(NC(=O)C3CCCCC3)cc2C1=O	13.7
Cc1ccc(OCC(=O)Nc2cc3nn(-c4ccc(C)cc4)nc3cc2C)cc1	-6.7

Continuation:
SMILES	NOMO-1 viab
O=C(C1CCCO1)N1N=C(c2c(-c3ccccc3)c3cc(Cl)ccc3[nH]c2=O)CC1c1ccco1 (stereo unspecified)	92.8*
Cc1noc(C)c1S(=O)(=O)N(C)C[C@H]1Oc2ccc(NC(=O)C3CCCCC3)cc2CC(=O)N([C@@H](C)CO)C[C@H]1C	0.3
C[C@H]1CN([C@@H](C)CO)C(=O)c2cc(NC(=O)Nc3ccc4c(c3)OCO4)ccc2O[C@@H]1CN(C)Cc1ccc(Cl)c(Cl)c1	23.0
CCNS(=O)(=O)c1cc(-c2nnc(OC)c3ccccc23)ccc1C	-3.2
COc1ccc(C)cc1S(=O)(=O)N(C)CC(=O)N1CCCC1	-7.8
CC(NS(=O)(=O)c1cccc(Cl)c1)C(=O)Nc1ccc(Br)cc1F (stereo unspecified)	-12.6
C[C@H](CO)N1C[C@H](C)[C@H](CN(C)C(=O)Nc2ccc(F)cc2)Oc2ccc(NC(=O)C3CCCCC3)cc2CC1=O	27.5
O=c1ccnc(SCc2ccc(Cl)cc2)[nH]1	6.5
Cc1noc(C)c1S(=O)(=O)Nc1ccc2c(c1)C(=O)N([C@H](C)CO)C[C@H](C)[C@@H](CN(C)C(=O)NC(C)C)O2	6.3
CC1CC[C@]2(C(=O)OC3OC(COC4OC(CO)C(O)C(O)C4O)C(O)C(O)C3O)CC[C@]3(C(=O)O)C(=CCC4[C@@]5(C)CC[C@H](OC6OC(C)C(O)C(O)C6O)C(C)(C)C5CC[C@]43C)C2C1C (stereo partly specified)	7.2
C[C@@H]1CCCCO[C@@H](CN(C)C)[C@@H](C)CN([C@H](C)CO)C(=O)c2cc(NS(=O)(=O)c3ccc(F)cc3)ccc2O1	8.8
CSc1ccccc1NC(=O)CN(c1cccc2ccccc12)S(C)(=O)=O	3.3
C[C@@H]1CN([C@H](C)CO)C(=O)Cc2cc(NS(=O)(=O)c3ccc(Cl)cc3)ccc2O[C@H]1CN(C)Cc1ccc(C(=O)O)cc1	13.8
C[C@@H]1CN([C@H](C)CO)C(=O)c2cccc(NC(=O)Nc3ccc(F)cc3)c2O[C@H]1CN(C)S(=O)(=O)c1ccc(Cl)cc1	12.0
Cc1ccc(S(=O)(=O)NC(C)C(=O)Nc2cc(C(F)(F)F)ccc2Cl)cc1 (stereo unspecified)	18.5
Cc1ccc(S(=O)(=O)c2nc(S(C)(=O)=O)sc2NCC2CCCO2)cc1 (stereo unspecified)	-12.4
COc1ccc(S(=O)(=O)Nc2cccc3c2O[C@@H](CN(C)Cc2ccc4c(c2)OCO4)[C@H](C)CN([C@@H](C)CO)C3=O)cc1	-1.3
COc1ccc([N+](=O)[O-])c(NC(=O)c2cnn3c(C(F)F)cc(-c4ccc(C)cc4)nc23)c1	22.1
Cc1ccc2nc(-c3ccccn3)cc(C(=O)NCc3cnn(C)c3)c2c1	23.4
Cc1noc(C)c1S(=O)(=O)Nc1cccc2c1O[C@@H](CN(C)C(=O)Nc1ccccc1)[C@@H](C)CN([C@H](C)CO)C2=O	17.6
C[C@H]1CN([C@@H](C)CO)C(=O)c2cc(NC(=O)C3CCCCC3)ccc2O[C@@H]1CN(C)C	10.5
C[C@@H]1CN([C@H](C)CO)C(=O)c2cc(NC(=O)CCN3CCOCC3)ccc2O[C@H]1CN(C)S(C)(=O)=O	9.0
CCOc1ccc(NC(=O)c2c(NC(=O)CN(C)C)sc3c2CCC3)cc1	10.3
COc1ccc(NC(=O)N(C)C[C@H]2Oc3c(NS(=O)(=O)c4ccc(OC)cc4)cccc3C(=O)N([C@H](C)CO)C[C@H]2C)cc1	22.3
C[C@H](CO)N1C[C@H](C)[C@H](CN(C)Cc2ccc(C(F)(F)F)cc2)Oc2ccc(NC(=O)Nc3ccc(C(F)(F)F)cc3)cc2C1=O	39.0
Cc1noc(C)c1NC(=O)Nc1ccc2c(c1)C(=O)N([C@H](C)CO)C[C@H](C)[C@H](CN(C)S(=O)(=O)c1ccc(Cl)cc1)OCCCC[C@@H](C)O2	-3.9
C[C@@H]1CN([C@H](C)CO)C(=O)c2cc(NC(=O)CCCCCC(=O)Nc3ccccc3N)ccc2O[C@H]1CN(C)C(=O)Nc1ccc(F)cc1	-10.3
Cn1c(Cc2cccc3ccccc23)nnc1SCC(=O)c1ccc(Cl)cc1	25.2
S=C1C=C(N2CCCCC2)CC(c2ccc(Cl)cc2)S1 (stereo unspecified)	40.9
C[C@H]1CN([C@@H](C)CO)C(=O)c2cccc(NS(=O)(=O)c3cn(C)cn3)c2O[C@H]1CN(C)S(C)(=O)=O	3.7
C=CCn1c(C)c2cc(Cl)c(Cl)cc2[n+]1C	0.1
C[C@H]1CN([C@@H](C)CO)C(=O)c2cc(NC(=O)Nc3ccccc3)ccc2O[C@H]1CN(C)C(=O)Nc1ccc(C(F)(F)F)cc1	33.2
C[C@@H]1CN([C@H](C)CO)C(=O)c2cc(NC(=O)Cn3cnnn3)ccc2O[C@@H]1CN(C)C(=O)Nc1ccc2c(c1)OCO2	5.1
CC(=O)c1cccc(NC(=O)CSc2nnc(-c3cc4ccccc4cc3O)n2C)c1	-4.1
O=C(COc1nc(-c2cccs2)cc(C(F)(F)F)n1)Nc1ccc(Cl)cc1Cl	9.0
Cn1c(SCC(=O)Nc2c(F)cc(F)cc2Br)nnc1-c1cccnc1	7.8

Part of the list above, with bars between the fields.
SMILES | NOMO-1 viab
C[C@H]1CN([C@@H](C)CO)C(=O)c2cccc(NS(=O)(=O)c3cn(C)cn3)c2O[C@H]1CN(C)S(C)(=O)=O | 3.7
C=CCn1c(C)c2cc(Cl)c(Cl)cc2[n+]1C | 0.1
C[C@H]1CN([C@@H](C)CO)C(=O)c2cc(NC(=O)Nc3ccccc3)ccc2O[C@H]1CN(C)C(=O)Nc1ccc(C(F)(F)F)cc1 | 33.2

(list continues)
SMILES	NOMO-1 viab
C[C@H]1CN([C@@H](C)CO)C(=O)c2cc(NC(=O)Nc3ccccc3)ccc2O[C@@H]1CN(C)S(C)(=O)=O	17.9
CN1CCN(CCOc2ccccc2)CC1	15.3
C[C@H](CO)N1C[C@H](C)[C@@H](CN(C)Cc2ccc(-c3ccccc3)cc2)Oc2ccc(NC(=O)CCCN(C)C)cc2C1=O	30.0
C[C@H](CO)N1C[C@H](C)[C@H](CN(C)C(=O)Nc2ccc(C(F)(F)F)cc2)Oc2c(NS(C)(=O)=O)cccc2C1=O	9.9
C[C@@H]1CN([C@H](C)CO)C(=O)c2cc(NS(=O)(=O)c3ccccc3)ccc2O[C@H]1CN(C)Cc1ccncc1	0.3
